HSD17B inhib = qHTS Assay for Inhibitors of HSD17B4, hydroxysteroid (17-beta) dehydrogenase 4 | 3-hydroxyacyl-CoA dehydrogenase type-2 (Homo sapiens), Q99714 | recombinant HSD17B10, NADH fluorescence kinetic; many of its hits are not listed in these tables | Potency, µM (top dose mostly 57.1 µM), without a hit: at the highest dose activity change, negative = inhibition, hits mostly inhibitors | 75,000 compounds, 7.6% hits; active means well fitted inhibition curve with a large enough effect; inconclusive means small, poorly fitted or top-dose-only effect; inactive means no such curve, though single readings can be large or run the other way;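 further: the protocol describes HADH2 (HSD17B10) and not the HSD17B4 of the title; nearly all actives have a fitted effect of over 70% in size; most hits overshoot -100% by far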
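20 nM HADH2, pH 9.0 Tris/Tween; cpd preinc 15 min RT; start w/ 1 mM NAD+ + 90 uM b-hydroxybutyryl-CoA; kinetic fluor ex360/em450 q30s x 4 min; delta last-first.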
Starred values were filed as active, the others as inactive; ? = inconclusive; [ ] = remark or other dose. On the % scale 0 is the no-effect control and ±100 the full control effect; potency means the concentration at half of the fitted maximal effect. Some of the compounds tested, so the mix of outcomes need not match the whole.

SMILES | HSD17B inhib
COc1ccc(OCc2nnc(SC3CCOC3=O)n2-c2ccccc2)cc1 (stereo not drawn) | 5%
C=CCN(CC(=O)NCc1ccccc1)C(=O)c1csnn1 | 9%
CCNc1nc(CC)nc2c1oc1ccccc12 | 5%
CCOc1ccc(C(=O)N2CCc3cc(OC)c(OC)cc3C2)cc1OCC | 7%
O=C(CSc1ncnc2ccccc12)Nc1ccc2c(c1)OCO2 | -2%
c1ccc(N2CCN(c3nnc(Cc4cccnc4)c4ccccc34)CC2)nc1 | 4%
COCCn1nnnc1C(c1cccc(OC)c1OC)N1CCN(C2CCCCC2)CC1 (stereo not drawn) | 3%
O=C(O)Cc1coc(-c2ccc(F)cc2)n1 | -3%
CC(=O)Nc1ccc(S(=O)(=O)N2CCN(C34CC5CC(CC(C5)C3)C4)CC2)cc1 | 3%
Cc1oc(-c2ccccc2)cc1C(=O)Nc1cccc(C(=O)O)c1 | -12%
COc1cccc(CN2CCN(C(=O)c3ccco3)CC2)c1OC | -1%
CCC1=C2CC[C@H]3C(=O)N(CC(=O)OC)C(=O)[C@H]3[C@H]2[C@@]2(Cc3ccccc3)C(=NCCOC)OC(=O)N2C1=O | 12%
CCc1nc(SCc2ccc(C(=O)OC)o2)c2c(=O)n(C)c(=O)n(C)c2n1 | 5%
CC(NC(=O)C1CC2CCCC(C1)C2=O)c1ccccc1 (stereo not drawn) | 8%
Cc1occc1-c1nnc(SCC(=O)NCCc2ccccc2)n1Cc1ccccc1 | -8%
C=C(C)C(O)/C=C/c1ccccc1OC (stereo not drawn) | 6%[11.4 µM]
O=C1Cn2c(nc3ccccc32)-c2ccccc2N1 | -26%
COc1ccc(N(C)S(=O)(=O)c2cccc(C(=O)Nc3ccc(-n4cnnn4)cc3)c2)cc1 | -24%
Cc1onc(-c2ccccc2Cl)c1C(=O)NCc1cccs1 | 1%
O=S(=O)(Cc1ccc(Cl)cc1)Nc1ccc2c(c1)OCO2 | -9%
Cc1ccccc1Cn1c(=O)n(CCCC(=O)NCc2ccco2)c(=O)c2ccccc21 | -4%
CCOC(=O)c1nn(-c2c(C)n(C)n(-c3ccccc3)c2=O)cc1O | 3%
Cc1ccccc1-c1coc2cc(O)ccc2c1=O | 20µM*
CC(=O)OCCN(Cc1ccccc1)Cc1ccc2c(c1)OCO2 | -4%
O=C(NCCCN1CCCCCC1)c1ccc(CS(=O)(=O)Cc2ccccc2F)o1 | -1%
COc1ccc(C(Cl)=C(c2ccc(OC)cc2)c2ccc(OC)cc2)cc1 | ?
Cc1ccccc1Cn1ccc(NC(=O)c2nc3ncccn3n2)n1 | 1%
CCC(=O)/C=C/C1C(C)=CCCC1(C)C (stereo not drawn) | 0%
CCOc1ccccc1Oc1cn[nH]c1-c1ccc(OC)cc1O | -14%
CCOc1ccc(S(=O)(=O)N2CCN(S(=O)(=O)c3ccc(OCC)cc3)C(C)C2)cc1 (stereo not drawn) | -1%
O=c1cc(O)c2c(=O)[nH]c(=O)n(-c3ccccc3)c2[nH]1 | -2%
O=C(COC(=O)c1ccccn1)Nc1nccs1 | 4%
COc1ccc(OCC(O)COc2ccc(C(=O)O)cc2)cc1 (stereo not drawn) | 0%
CCOC(=O)c1[nH]c2ccc(OCC)cc2c1NC(=O)CN1CCC2(CC1)OCCO2 | 32µM*
Cc1cc(Cl)ccc1NC(=O)CSc1nnc(-c2ccncc2)n1Cc1ccco1 | 1%
O=C(Nc1nc2n(n1)C(c1ccccc1)CC(c1ccc(Cl)cc1)N2)c1ccco1 (stereo not drawn) | 0%
COCCCNC(=O)CCCn1c(=O)c2ccccc2n(CC(=O)Nc2c(C)cc(C)cc2C)c1=O | 0%
Cc1c(C(=O)NC(C)C)oc2c1-c1[nH]ncc1CC2 | 32µM*
COC(=O)COc1ccc(C(=O)OC)cc1 | 3%
S=c1oc(-c2ccncc2)nn1CCc1ccncc1 | -24%
CCNC(=O)NC(C(=O)OC)C12CC3CC(CC(C3)C1)C2 (stereo not drawn) | 4%
C/C(Cl)=C\CNC(C)c1ccccc1 (stereo not drawn) | 3%
C[C@](O)(c1ccccc1)c1nccc2ccccc12 | 4%[11.4 µM]
CCN(CC)S(=O)(=O)c1ccc(NC(=O)CN(c2cccc(F)c2)S(C)(=O)=O)cc1 | -1%
COc1cccc(NC(=O)NCCCN2CCN(c3ccc(F)cc3)CC2)c1 | 4%
O=C(CSc1nnnn1-c1ccccc1)N1CCN(C(=O)c2ccco2)CC1 | 9%
COc1ccc(CCNc2oc(COc3ccc(F)cc3)nc2C#N)cc1 | -6%
COC(=O)C1=CN(C(C)C)C=C(C(=O)OC)C1c1cc2c(cc1Br)OCO2 | -20%
COc1ccc(C(=O)N2CCC3(CCCN(C(=O)NC(C)C)C3)CC2)cc1 | -2%
CC(=O)Oc1ccccc1N1C(=O)c2ccc(C(=O)O)cc2C1=O | -12%
COC(=O)C1=C(C)N(C2CCCC2)C(=O)C1(NC(C)=O)C(F)(F)F (stereo not drawn) | -2%
O=C1CCCC2=C1C(c1ccccc1O)C1=C(CCCC1=O)O2 | 5%
O=C(Cn1c(NCCO)nc2ccccc21)c1ccco1 | 6%
CCOc1cc2c(cc1C(C)(C)C)NC(=O)CS2 | -3%
CCS(=O)(=O)N1CCC(C(=O)NCCCN2CCC(Cc3ccccc3)CC2)CC1 | -4%
CC(C)n1c(-c2ccc(N(C)C)cc2)nc2ccccc21 | 25µM*
CC(C)CCNC(=O)CCCn1c(=O)[nH]c2ccc(Br)cc2c1=O | 13%
Cc1noc(C)c1-c1cncnc1NC1CC1 | -29%
Cc1c(-n2cc(C(=O)O)c(=O)c3cc(F)c(N4CCCC4)c(F)c32)c(=O)n(-c2ccccc2)n1C | 64%[activator]
Cc1cc(C(=O)COC(=O)CCCN2C(=O)c3ccccc3C2=O)c(C)n1C | -1%
New compounds follow:
SMILES | HSD17B inhib
COc1ccc(Nc2nnc(Cc3ccc(Cl)cc3)c(=O)[nH]2)c(OC)c1 | -20%
O=C(NCc1ccccc1)NC1(C(=O)N2CCN(c3ccccc3)CC2)CCCCC1 | 2%
CCOC(=O)c1ccccc1NC(=O)C1COc2ccccc2O1 (stereo not drawn) | -22%
CCCCOc1ccc(-c2nc(-c3cccnc3)no2)cc1 | -16%
COc1ccc(C(=O)NCc2cccnc2)cc1S(=O)(=O)N1CCOCC1 | 4%
Cc1ccc(N2C(=O)c3oc4ccccc4c(=O)c3C2c2cccc(O)c2)nc1 (stereo not drawn) | -5%
O=c1[nH]c2ccc(Br)cc2c(-c2ccccc2)c1N1CCOCC1 | ?
O=C(O)c1c[nH]c2ccc(S(=O)(=O)N3CCN(c4ccc(F)cc4)CC3)cc2c1=O | ?
c1cncc(-c2nnc(SCc3nc4ccccc4[nH]3)o2)c1 | ?
Cc1c(NC(C)C)c(=O)n(-c2ccccc2)n1C | 2%
CCCC1(c2ccccc2)NC(=O)N(CC(=O)c2[nH]c(C)c(C(=O)OCC)c2C)C1=O (stereo not drawn) | 8%
COC(=O)c1ccccc1NC(=O)Cn1cc(Br)cn1 | 0%
O=c1cc(N2CCC3(CC2)OCCO3)[nH]c(=O)n1-c1ccc(Br)cc1 | 2%
CN(C)c1ccc(C(=N)c2ccc(N(C)C)cc2)cc1 | -4%
Cc1cc(=O)[nH]c(SCC(=O)Nc2cccc(C(F)(F)F)c2)n1 | 4%
CCN(CC)CCn1c2ccccc2c2nc(C)sc21 | -1%
Cc1ccc(S(=O)(=O)NC(=O)NCc2ccccn2)cc1 | 2%
O=C(O)c1ccc(F)c(S(=O)(=O)Nc2cccc(F)c2)c1 | 3%
Nn1c(SCc2ccccc2)nnc1-c1ccco1 | 3%
CNc1ncncc1-c1ccccc1C(F)(F)F | ?
COc1ccccc1[N+](=O)[O-] | -1%
CC(=O)N(c1cccc(C)c1)C1SC(=O)N(c2ccccc2)C1=O (stereo not drawn) | 4%
COc1cc2c(cc1OC)-c1cc(NC3CC3)nc(=O)n1CC2 | ?
CN(Cc1ccccc1)Cc1nc2c([nH]1)c(=O)[nH]c(=O)n2C | 7%
N#C/C(=C(/O)COC(=O)CCc1ccc(S(=O)(=O)N2CCOCC2)cc1)c1nc2ccccc2[nH]1 | ?
CC(C)N(C(=O)Cn1c(SCC(=O)N2CCN(c3ccccc3)CC2)nc2ccccc21)C(C)C | -3%
CCOc1ccc(CCN2C(=O)CCC2(C)C(=O)NC(C)CC)cc1OCC (stereo not drawn) | 6%
O=C(CSc1nnc(Cn2c(=O)sc3ccccc32)n1-c1ccccc1)NCc1ccco1 | -22%
CCCCN(C(=O)NC(=O)Nc1cc(C)ccc1C)S(C)(=O)=O | 8%
CCn1c(SCC(=O)Nc2nc(C)c(C(=O)OC)s2)nnc1C(C)C | 11%
Cc1cccn2cc(-c3ccc(F)cc3)nc12 | 32µM*
CC(O)C(O)C(O)C(O)C1NCCS1 (stereo not drawn) | -6%
CCOC(=O)N1CCN(CC(O)COC2CC(C)CC(C)(C)C2)CC1 (stereo not drawn) | -1%
COc1ccc(C)c(S(=O)(=O)Nc2ccc(OCC(=O)O)cc2)c1 | 5%
CCOC(=O)Cc1csc(NC(=O)c2cccc(N3C(=O)CCC3=O)c2)n1 | 2%
CCOC(=O)N1CCN(C(=O)CN(c2cccc(C)c2)S(=O)(=O)c2ccc(C)cc2)CC1 | 1%
O=C(O)Cc1ccc(NC(=O)c2cccs2)cc1 | 3%
O=C(OC[C@@H](O)CO)c1ccccc1Nc1ccnc2cc(Cl)ccc12 | ?
C[N+](C)(C)CCOP(=O)([O-])OP(=O)(O)OCC1OC(n2ccc(N)nc2=O)C(O)C1O (stereo not drawn) | -1%
CCOC(=O)c1c(-c2ccc(C)o2)csc1NC(=O)CSc1nnnn1-c1ccccc1 | ?
COC(=O)[C@@H]1C[C@H]1[C@@H](NS(=O)(=O)c1ccc(-c2ccccc2)cc1)c1ccccc1 | 3%
CC(C(=O)OCC(=O)Nc1ccc2c(c1)OCO2)N1C(=O)c2ccccc2C1=O (stereo not drawn) | 0%
CC(C)=C1C(=O)C(c2ccccc2)=C2CN3C(=O)N(CCc4ccccc4)C(=O)[C@]3(Cc3ccc(C(F)(F)F)cc3)[C@H]21 | 4%
CCOC(=O)c1[nH]c2c(c1C)C(=O)CC(c1ccco1)C2 (stereo not drawn) | 25µM*
CCN1CCN(C(=O)c2ccc3c(=O)n(Cc4ccccc4OC)c(=S)[nH]c3c2)CC1 | 0%
CCOC(=O)c1oc2ccccc2c1NC(=O)c1cccc(OC)c1 | ?
O=C(O)c1cccc(COc2ccccc2Cl)c1 | 3%
O=C(c1ccc(Br)o1)N(Cc1ccccc1)c1ccccn1 | 8%
Cn1c(=O)c(C(=O)CN2CCOCC2)c(N)n(Cc2ccccc2)c1=O | -4%
COc1ccccc1C(=O)NCCNC(=O)c1ccco1 | 20%
CCn1c(SCC(=O)c2[nH]c(C)c(C(C)=O)c2C)nnc1-c1ccncc1 | -12%
C=CCn1c(-c2cccs2)nc2ccccc21 | 25µM*
COc1ccc(-n2c(Cc3cccn3C)nnc2SCC(=O)Nc2cc(Cl)ccc2OC)cc1 | -4%
COC(=O)CCCc1nc2ccccc2s1 | 0%
C[C@@H]1Nc2ccc(Cl)cc2S(=O)(=O)N1 | 32µM*
CCCn1nnnc1NC(=O)CSc1ccc(Cl)cc1 | -5%
COc1ccc(C(C)=O)cc1CSc1nc2ccccc2o1 | -17%
Cc1ccc(NC(=O)CCNS(=O)(=O)c2cccc3nonc23)cc1 | -1%
Fc1ccc(-c2ccc(-c3nn4c(-c5ccco5)nnc4s3)o2)cc1 | ?
CCOC(=O)c1c(NC(C)=O)sc2c(O)c(CN3CCN(CC)CC3)ccc12 | -12%
(next part)
SMILES | HSD17B inhib
Cn1c(=O)c2c(nc(NCc3ccco3)n2CC(O)COc2ccccc2)n(C)c1=O (stereo not drawn) | 6%
O=C(O)c1ccccc1NS(=O)(=O)c1cccc2ccccc12 | 0%
COCCn1nnnc1C(c1cc2cc(C)cc(C)c2[nH]c1=O)N1CCN(c2ccccc2F)CC1 (stereo not drawn) | -27%
OC(COc1cccc(OCC(O)CN2CCCC2)c1)CN1CCCC1 (stereo not drawn) | 9%
CCCCCn1c(CN2CCCCC2CC)nc2c1c(=O)n(C)c(=O)n2C (stereo not drawn) | 20µM*
